# N370S GC: N370S glucocerebrosidase modulation, Gaucher chaperone candidate; N370S GC spleen homogenate, 4MU-glucoside fluorescence; P04062; Potency, µM (titrated, usually from 59.4 µM), without a hit: top-dose activity change, negative = inhibition, actives largely listed as inhibitors; 0.092% of 330,000 active;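 further: 0% = full enzyme activity and -100% = no enzyme basal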
# TDP1 block: inhibitors of human tyrosyl-DNA phosphodiesterase TDP1 | Q9NUW8 | recombinant TDP1, AlphaScreen DNA substrate cleavage | Potency, µM (highest dose often 130 µM), without a hit: at the top dose activity change, negative = inhibition, actives largely listed as inhibitors | 0.28% of 350,000 active | AID 485290; further: nearly all actives have a fitted effect of over 40% in size
# Target sequence (Q9NUW8 whole entry, looked up): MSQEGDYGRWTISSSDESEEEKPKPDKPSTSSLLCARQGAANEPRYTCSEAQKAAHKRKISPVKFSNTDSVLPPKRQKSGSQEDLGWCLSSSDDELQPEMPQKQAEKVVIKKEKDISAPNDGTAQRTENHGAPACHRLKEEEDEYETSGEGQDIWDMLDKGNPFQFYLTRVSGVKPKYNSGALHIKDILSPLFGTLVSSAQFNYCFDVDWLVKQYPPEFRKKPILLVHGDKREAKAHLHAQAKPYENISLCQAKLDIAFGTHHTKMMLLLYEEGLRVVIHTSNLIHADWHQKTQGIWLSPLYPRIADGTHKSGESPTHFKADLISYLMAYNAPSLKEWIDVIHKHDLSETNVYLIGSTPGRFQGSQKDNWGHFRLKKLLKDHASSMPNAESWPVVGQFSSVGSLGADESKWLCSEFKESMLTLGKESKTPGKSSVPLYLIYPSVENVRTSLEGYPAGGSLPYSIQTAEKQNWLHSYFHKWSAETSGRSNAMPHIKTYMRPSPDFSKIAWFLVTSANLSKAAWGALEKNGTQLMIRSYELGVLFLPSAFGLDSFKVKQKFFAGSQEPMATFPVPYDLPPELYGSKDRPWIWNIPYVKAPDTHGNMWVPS
#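 Signal: AlphaScreen proximity between streptavidin donor and anti-FITC acceptor beads on intact substrate. Reaction: Tdp1 1 nM, substrate 15 nM final, 5 min RT after 15 min compound preincubation.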
# * marks the source's active call; other numbers are inactive results; ? = inconclusive; nt = no result given; & = joins results of further samples; [ ] = remark or other dose. The call rests on the fitted dose curve; in most records, active means well fitted curve in the direction sought with a large enough effect; inconclusive means small, poorly fitted or top-dose-only effect, or another doubt; inactive means no such curve, though single readings can be large; an effect the other way counts as inactive or inconclusive. Unless noted, on the % scale 0 is the no-effect control and ±100 the full control effect; potency means the concentration at half of the fitted maximal effect.
N370S GC,TDP1 block,structure
4%,8%,O=C(O)/C=C/C(=O)Nc1ccc(OC(F)F)cc1
6%,4%,COCCNC(=O)c1ccccc1NC(=O)C1COc2ccccc2O1 (centres undefined)
-16%,-1%,CC1CCC(NC(=O)CCn2ccc3cc(S(=O)(=O)N4CCCC4)ccc32)CC1 (centres undefined)
?,3%,N/C(Cc1ccccc1Sc1ccccc1)=N\O
-9%,-8%,COc1cc(NS(=O)(=O)c2ccc(Cl)cc2)c(C(=O)O)cc1OC
-5%,2%[0.0935 µM],COc1ccccc1CC(NC(C)=O)C(=O)NC1CCN(C(=O)c2ccc(C)cc2)CC1 (centres undefined)
-4%,-14%&-4%,Cc1ccc(CNS(=O)(=O)c2ccc(-c3cnc(C4CC4)o3)cc2)cc1
-9%,1%,CC(OC(=O)CNC(=O)c1ccc2c(c1)OCO2)C(=O)NCCC1=CCCCC1 (centres undefined)
6%,6%,CCOC(=O)C1=C(Cn2cnc3ccccc32)NC(=O)NC1c1ccc(Cl)cc1 (centres undefined)
3%,6%,COc1ccc(NC(=O)c2ccco2)c(OC)c1
8%,nt,Fc1cccc(CSc2nnc3c(n2)[nH]c2ccccc23)c1
-10%,-1%,Nc1nnc(CC(=O)N/N=C/c2cccc(OCCOc3ccccc3)c2)s1
-2%,4%,CCOC(=O)CSc1nc2ccc(NC(C)=O)cc2s1
4%,3%,COc1ccc(N2CCN(c3cnc4ccccc4n3)CC2)cc1
6%,2%,O=C(CSCC(=O)OCn1nnc2ccccc2c1=O)Nc1ccc(Cl)cc1
4%,3%,COc1ccc(C2CC(C)(c3ccc(OC)cc3OC)Nc3ccccc3N2)c(OC)c1 (centres undefined)
6%,-6%,COc1cc(NC(=O)c2ccc(C)cc2)c(OC)cc1NC(=O)CN1CCOCC1
-13%,1%,N/C(Cn1cncn1)=N\OC(=O)c1ccc(Cl)cc1
-1%,-20%,COCc1c(C(=O)N/N=C/c2c[nH]c3ccccc23)nnn1-c1nonc1N
-11%,3%,COC(=O)CCCC(=O)N1CCCC(C(=O)c2ccc(OC)cc2C)C1 (centres undefined)
2%,5%,Nc1c(N(C(=O)Nc2ccc(Cl)c(Cl)c2)C2CCCC2)c(=O)[nH]c(=O)n1Cc1ccccc1
nt,2%,Cc1ccnc(NC(=O)c2cccc(NC(=O)CC3SC(N4CCCCC4)=NC3=O)c2)c1 (centres undefined)
2%,0%,Cn1cc(P(=S)(N2CCOCC2)N2CCOCC2)cc1P(=O)(N1CCOCC1)N1CCOCC1
6%,1%,CCOC(=O)/C(=C/C1=CC(=C/N(C)C)/C(=O)O1)C(C)=O
6%,6%,COC(=O)N/N=C\c1cc(Br)ccc1OCc1ccccc1
28%,2%,CC(C)(C)Nc1nc(SCc2ccccc2)nc(N2CCOCC2)n1
0%,2%,O=C(CSc1nnc(-c2ccc(Cl)cc2)o1)NNC(=O)c1ccncc1
23%,3%,S=c1[nH]nc(COc2ccccc2)n1/N=C/c1ccncc1
-13%,-1%,COc1ccc(-n2c(N)c(C(=O)NCc3ccco3)sc2=S)cc1
-1%,1%,Cc1ccc(S(=O)(=O)N2CCN(C(=O)COC(=O)c3ccc(C(C)(C)C)cc3)CC2)c(C)c1
-6%,nt,COc1cnc(-c2ccccn2)nc1Oc1ccc(C(C)(C)C)cc1
-20%,3%,Cc1cc(C(=O)Nc2ccccc2C(=O)O)ccc1NC(=O)COc1cccc(C)c1C
-6%,0%,CN(C)S(=O)(=O)N1CCN(C(=O)c2cccc(Br)c2)CC1
-13%,0%,COc1ccccc1S(=O)(=O)Nc1cc(S(=O)(=O)N2CCCCC2)ccc1N1CCOCC1
-14%,nt,COc1ccc(S(=O)(=O)Nc2cccc(SC)c2)cc1C(=O)N1CCOCC1
-9%,nt,COc1ccccc1CC(NC(C)=O)C(=O)NC1CCN(C(=O)Nc2ccc(F)cc2)CC1 (centres undefined)
12%,-3%,CN(CC(=O)Nc1ccc(F)c(F)c1F)c1ncnc2sccc12
11%,2%,COc1cc(C(=O)NCCNc2nc3cc(C)ccc3cc2C#N)cc(OC)c1OC
nt,1%,CC(=O)Nc1ccc(C(=O)COC(=O)c2cccs2)c(F)c1
1%,0%,COC(=O)C1(CC2CC(c3ccncc3)=NO2)CCN(C(=O)OC(C)(C)C)CC1 (centres undefined)
-2%,-10%,C(=N\N1CCN(Cc2ccccc2)CC1)/c1ccc(-c2ccccc2)cc1
-2%,0%,N=C(N)SCc1ccccn1
-4%,-2%,Cc1ccc(NC(=O)C2CCCN(S(=O)(=O)c3c(C)noc3C)C2)c(Br)c1 (centres undefined)
-13%,-2%,COc1ccc(CCNC(=O)C(=O)Nc2ccc3c(c2)OCCO3)cc1OC
2%,7%,COC(=O)c1ccc(NC(=O)CN(c2ccc(C)cc2)S(=O)(=O)c2c(C)n[nH]c2C)cc1
6%,1%,COCCn1c(CN2CC(C)CC(C)C2)nc2c1c(=O)n(C)c(=O)n2C (centres undefined)
15%,1%,Cc1cc(C)n2nc(C(=O)N/N=C/c3cccs3)nc2n1
-8%,5%,COCCn1c(C)cc(C2=NNC(=NC(C)(C)C)SC2)c1C
4%,5%,Cc1ccc(NC(=O)C2CCCN(S(=O)(=O)c3cnc[nH]3)C2)cc1C (centres undefined)
-5%,1%,Cc1nn(C)c(C)c1S(=O)(=O)N(CC(=O)NCCCN1CC(C)CC(C)C1)c1ccc(C(C)C)cc1 (centres undefined)
-1%,5%,c1ccc(C2=NNC(=NCc3ccc4c(c3)OCO4)SC2)cc1
11%,12%,Cc1ccc(C2C(C#N)=C(N)Oc3cc4c(cc32)OCO4)cc1 (centres undefined)
1%,3%,Cc1ccc2nc(NCCCN3CCOCC3)c(C=NCCCN3CCOCC3)c(=O)n2c1
-15%,1%,CCC(=O)NC(Cc1ccccc1)c1nc2ccccc2[nH]1 (centres undefined)
1%,1%,O=C(Nc1cccc(OC(=O)c2ccco2)c1)c1ccco1
2%,2%,Cc1ccsc1C(=O)OC1CCOC1=O (centres undefined)
-2%,4%,Nc1[nH]ncc1-c1ccc(Cl)cc1
0%,12%,CN(C)c1ccc(NC(=O)c2sc(SCC(=O)Nc3nccs3)nc2N)cc1
nt,-4%,Cc1ccc(CNC(=O)CSc2nc3ccccc3c(=O)n2CC2CCCO2)cc1 (centres undefined)
?,3%,COc1cc2c(cc1NC(=O)COC(=O)[C@@H](NS(=O)(=O)c1ccccc1)C(C)C)oc1ccccc12

# Sorted by formula weight (low to high): part of the list above.
N370S GC,TDP1 block,structure
-2%,4%,Nc1[nH]ncc1-c1ccc(Cl)cc1
2%,2%,Cc1ccsc1C(=O)OC1CCOC1=O (centres undefined)
nt,-4%,Cc1ccc(CNC(=O)CSc2nc3ccccc3c(=O)n2CC2CCCO2)cc1 (centres undefined)
?,3%,COc1cc2c(cc1NC(=O)COC(=O)[C@@H](NS(=O)(=O)c1ccccc1)C(C)C)oc1ccccc12
-5%,1%,Cc1nn(C)c(C)c1S(=O)(=O)N(CC(=O)NCCCN1CC(C)CC(C)C1)c1ccc(C(C)C)cc1 (centres undefined)

# Going on with the list:
N370S GC,TDP1 block,structure
1%,-8%,CCCC(NC(=O)c1c(C)noc1C)C12CC3CC(CC(C3)C1)C2 (centres undefined)
1%,9%,O=C(O)C1CC=CCC1C(=O)NC12CC3CC(CC(C3)C1)C2 (centres undefined)
nt,-1%,Cc1ccc(C(=O)Nc2ccc(F)cc2F)o1
16%,3%,O=C(N=C1c2ccccc2CN1c1ccccc1)c1cccc([N+](=O)[O-])c1
24%,nt,Cc1c(CC(=O)N[C@@H](C)C(=O)O)c(=O)oc2cc3oc4c(c3cc12)CCCC4
-6%,6%,Cc1cc(C)n2nc(C(=O)N/N=C/c3ccccc3C)nc2n1
0%,nt,COc1ccc(NC(=S)NC(=O)Cc2ccccc2)c(OC)c1
1%,5%,COc1ccc(CN(CC(=O)NC2CCCC2)C(=O)CCC(=O)Nc2cc(C)on2)cc1
-16%,nt,CCc1ccc(NS(=O)(=O)c2ccc3c(c2)CCN3C(=O)CCC(=O)O)cc1
-7%,2%,COc1ccc(C(=O)Nc2cc3c4c(c2)C(C)C(=O)N4CCC3)c(OC)c1 (centres undefined)
-1%,-9%,C=CCNS(=O)(=O)c1cc(S(=O)(=O)NCC=C)c(OC)cc1OC
nt,0%,CC1CCCC(NC(=O)CSc2n[nH]c(N)n2)C1C (centres undefined)

# As entered above:
# `COc1ccc(CN(CC(=O)NC2CCCC2)C(=O)CCC(=O)Nc2cc(C)on2)cc1` | N370S GC = 1%
# `COc1ccc(NC(=S)NC(=O)Cc2ccccc2)c(OC)c1` | N370S GC = 0%
# `O=C(O)C1CC=CCC1C(=O)NC12CC3CC(CC(C3)C1)C2` (centres undefined) | TDP1 block = 9%
# `O=C(N=C1c2ccccc2CN1c1ccccc1)c1cccc([N+](=O)[O-])c1` | TDP1 block = 3%

# (further entries)
N370S GC,TDP1 block,structure
-1%,2%,Cc1cc(C)cc(C(=O)NCCn2cc(SCC(=O)N3CCOCC3)c3ccccc32)c1
7%,5%,N/C(Cc1ccc([N+](=O)[O-])cc1)=N\OC(=O)c1cccc(Br)c1
11%,3%,O=C(C1CCC(Cn2c(=O)[nH]c3ccccc3c2=O)CC1)N1CCN(c2ccccc2)CC1 (centres undefined)
2%,6%,Cc1ccc(-c2cc(C(F)F)n3ncc(C(=O)Nc4cn(C)nc4C)c3n2)cc1
-11%,2%,CC1CCCN(CCC(=O)Nc2ccccc2)C1 (centres undefined)
2%,8%,CCCCSCCCNC(=O)CS(=O)Cc1nc(-c2cccc(C)c2)oc1C (centres undefined)
-3%,0%,Cc1c(CN2CCCCC2C)c(=O)n(-c2ccccc2)n1C (centres undefined)
-1%,2%,COc1cc(OC)cc(-c2nc(-c3ccccc3)no2)c1
4%,4%,CCOc1ccc(/C=C/C(O)=C2/C(=O)NC3(C)CC2c2ccccc2O3)cc1OC (centres undefined)
1%,3%,CC1(C)Oc2ccc(C(=O)N3CCOCC3)cc2N(CC(=O)N2CCOCC2)C1=O
8%,3%,c1ccc(-c2csc(Nc3nc(N4CCOCC4)nc(N4CCOCC4)n3)n2)cc1
-26%,2%,COC(=O)CSc1nc2c(cnn2-c2ccc(F)cc2)c(=O)[nH]1
-17%,nt,O=[N+]([O-])c1cc([N+](=O)[O-])c2cc3ccccc3nc2c1
7%,1%,Cc1ccc2oc(=O)c3cnn(CC(=O)N4CCN(c5ccccn5)CC4)c3c2c1
9%,nt,CCN(CC(=O)Nc1ccccc1OC)C(=O)CSCC(=O)Nc1ccc(OC)cc1
-6%,nt,C[C@@]12C(=O)OC(=O)[C@]1(C)C1CCC2O1
0%,nt,Cc1ccc(Cl)c(OCC(=O)NC2CCN(Cc3ccccc3)CC2)c1
14%,0%,CCc1cccc(OCC2Cn3c(nc4c3c(=O)[nH]c(=O)n4C)O2)c1 (centres undefined)
0%,2%,CCN(CC(=O)NCc1ccc(F)cc1)Cc1cc(=O)n2ccsc2n1
1%,3%,CCOc1ccccc1NC(=O)N1CCC(c2nc3ccccc3[nH]2)CC1
-3%,nt,COc1ccc(-c2nnc(-c3ccccc3)o2)cc1OC
13%,8%,COc1ccc(N2CC(C)Cn3c2nc2c3c(=O)n(Cc3ccc(C)cc3)c(=O)n2C)c(OC)c1 (centres undefined)
6%,nt,Cc1cc(C)cc(OCC(=O)O/N=C(\N)c2ccccc2Cl)c1
5%,5%,Cc1cccc(-n2c(O)c(C=NCc3ccccn3)c3ccccc3c2=O)c1
-5%,4%,Cc1ccc(CNC(=O)CCc2nnc3ccc(NCCCN4CCCC4=O)nn23)cc1
nt,1%,O=C(NCCN1CCOCC1)c1ccccc1OCc1ccccc1
-8%,-5%,O=C(COC(=O)c1ccco1)NCc1ccc(F)cc1
2%,7%,CC(=O)c1ccc(NC(=O)c2ccc(-n3cncn3)c([N+](=O)[O-])c2)cc1
2%,8%,Fc1ccc(/C=N/NC2=Nc3cccc4cccc2c34)cc1
-30%,1%,CCC1CCCCN1CCCNC(=O)c1cc2c(=O)oc3ccc(C)cc3c2s1 (centres undefined)
-22%,nt,CCCn1nnnc1NCc1cccc(OC)c1OCC
-11%,9%,COCCN(Cc1ccccc1)C(=O)c1cccc(S(=O)(=O)N2CCN(c3ccccc3)CC2)c1
4%,2%[0.505 µM],Cc1ccc(CC(=O)N2CCN(S(=O)(=O)c3ccccc3)CC2)cc1C
4%,4%,O=c1[nH]nc(SCc2nc3ccccc3s2)n1C1CC1
-14%,nt,Cc1occc1C(=O)NCc1nc(-c2ccccc2)no1
-7%,1%[0.505 µM],COc1ccc(OC)c(/C=C/C(=O)OCC(=O)N2CCN(S(=O)(=O)c3ccc(C)cc3C)CC2)c1

# 3 entries out of the list above, ordered by the value under TDP1 block, high to low.
N370S GC,TDP1 block,structure
2%,8%,Fc1ccc(/C=N/NC2=Nc3cccc4cccc2c34)cc1
4%,4%,O=c1[nH]nc(SCc2nc3ccccc3s2)n1C1CC1
nt,1%,O=C(NCCN1CCOCC1)c1ccccc1OCc1ccccc1

# Other entries.
N370S GC,TDP1 block,structure
-1%,0%,CCN1CCN(CC(=O)Nc2ccc(Cl)c(S(=O)(=O)N(C)C)c2)CC1
?,2%,Cc1ccc(NC2=NC(c3ccc(O)cc3)n3c(nc(C)cc3=O)N2)cc1 (centres undefined)
-2%,7%,COc1cc(/C=C2\SC(=S)N(N3CCOCC3)C2=O)cc(OC)c1OC
-2%,1%&-3%,CC(=O)c1cccc(NS(=O)(=O)c2cc3c(cc2C)N(C(C)=O)CCO3)c1

# Screens: PubChem, National Center for Advancing Translational Sciences (NCATS)

# These rows are one share of the data; most or all hits stand in other tables.
